Source: PubChem BioAssay
NOMO-1 viab: STK33 inhibitor candidate reducing NOMO-1 cell viability; inhibition, % (test concentration not listed); 37,000 compounds, 7.5% hits; NOMO-1 AML viability, CellTiter-Glo luminescence, 72 h; AID 2330;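 active = most replicates above 80%; inconclusive = exactly half above 80%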;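 also: wells of about 30 µL received 25 nL stock; 0% = median of vehicle wells and 100% = reference inhibitor level; the first replicate is given; inactives centre near 10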
Starred values were filed as active, the others as inactive; ? = inconclusive. The list is partial, so the mix of outcomes need not match the whole.

SMILES	NOMO-1 viab
Oc1c(C(Nc2cccc(Cl)c2)c2cccnc2)ccc2cccnc12 (stereo unspecified)	114.9*
Cc1noc(C)c1NC(=O)Nc1cccc2c1O[C@H](CN(C)S(C)(=O)=O)[C@H](C)CN([C@@H](C)CO)C2=O	11.8
Cc1nnc(NC(C)C)s1	-6.2
C[C@@H]1CN([C@@H](C)CO)C(=O)c2cc(NC(=O)CCN3CCOCC3)ccc2O[C@@H]1CN(C)Cc1ccc(C(=O)O)cc1	-20.7
C[C@H](CO)N1C[C@H](C)[C@@H](CN(C)Cc2ccc(C(F)(F)F)cc2)Oc2ccc(NC(=O)Nc3cccc4ccccc34)cc2C1=O	?
C[C@@H]1CN([C@@H](C)CO)C(=O)c2cccc(NS(=O)(=O)c3ccccc3)c2O[C@@H]1CN(C)Cc1ccc(C(F)(F)F)cc1	15.6
O=C(O)C1C2C=CC(O2)C1C(=O)Nc1ccc(S(=O)(=O)N2CCc3ccccc32)cc1 (stereo unspecified)	21.0
C[C@@H]1CN([C@H](C)CO)C(=O)c2cc(NC(=O)C3CCCCC3)ccc2O[C@@H]1CN(C)Cc1ccc(C(=O)O)cc1	12.9
C[C@H]1CN([C@@H](C)CO)C(=O)c2cc(NC(=O)Cc3cn(C)c4ccccc34)ccc2O[C@H]1CN(C)C(=O)NC1CCCCC1	21.6
C[C@H]1CN([C@@H](C)CO)C(=O)c2cccc(NC(=O)Nc3ccccc3)c2O[C@H]1CN(C)Cc1ccccc1	33.3
COc1ccc(NC(=O)N(C)C[C@H]2Oc3c(NS(=O)(=O)c4ccc(Cl)cc4)cccc3C(=O)N([C@@H](C)CO)C[C@H]2C)cc1	-6.0
C=CCn1c(SCC(N)=O)nnc1-c1cc(Br)ccc1O	8.7

Entries above that have nitrogen in an aromatic ring:
SMILES	NOMO-1 viab
Oc1c(C(Nc2cccc(Cl)c2)c2cccnc2)ccc2cccnc12 (stereo unspecified)	114.9*
Cc1noc(C)c1NC(=O)Nc1cccc2c1O[C@H](CN(C)S(C)(=O)=O)[C@H](C)CN([C@@H](C)CO)C2=O	11.8
Cc1nnc(NC(C)C)s1	-6.2
C[C@H]1CN([C@@H](C)CO)C(=O)c2cc(NC(=O)Cc3cn(C)c4ccccc34)ccc2O[C@H]1CN(C)C(=O)NC1CCCCC1	21.6
C=CCn1c(SCC(N)=O)nnc1-c1cc(Br)ccc1O	8.7

Carrying on:
SMILES	NOMO-1 viab
CCCCC/C=C\C/C=C\C/C=C\C/C=C\CCCCCC(=O)O	19.2
COc1ccc(S(=O)(=O)Nc2cccc3c2O[C@H](CN(C)C(=O)Nc2ccc4c(c2)OCO4)[C@H](C)CN([C@@H](C)CO)C3=O)cc1	-8.5
COc1ccc(NC(=O)Nc2ccc3c(c2)C(=O)N([C@H](C)CO)C[C@H](C)[C@H](CN(C)Cc2ccncc2)OCCCC[C@@H](C)O3)cc1	2.2
CNC[C@@H]1Oc2ccc(NC(=O)Nc3c(C)noc3C)cc2CC(=O)N([C@H](C)CO)C[C@H]1C	-22.3
COc1ccc(CN(C)C[C@H]2Oc3c(NS(=O)(=O)c4c(C)noc4C)cccc3C(=O)N([C@H](C)CO)C[C@H]2C)cc1	-9.2
C[C@@H]1CCCCO[C@H](CN(C)C(=O)c2ccccc2)[C@@H](C)CN([C@H](C)CO)C(=O)c2cc(NC(=O)Cc3ccccc3)ccc2O1	8.4
COc1ccc(NC(=O)Nc2ccc3c(c2)C(=O)N([C@H](C)CO)C[C@@H](C)[C@@H](CN(C)C(=O)NC(C)C)O3)cc1	4.7
C[C@@H]1CN([C@@H](C)CO)C(=O)Cc2cc(NC(=O)CCN3CCOCC3)ccc2O[C@@H]1CN(C)S(=O)(=O)c1ccc(F)cc1	10.4
CCOC(=O)c1ccc2nc(C(F)(F)F)nc(N3CCCCC3)c2c1	24.4
C[C@@H]1CN([C@H](C)CO)C(=O)Cc2cc(NC(=O)CCCCCC(=O)Nc3ccccc3N)ccc2O[C@@H]1CN(C)Cc1ccc(Cl)c(Cl)c1	136.6*
CC(C)NC(=O)N(C)C[C@@H]1Oc2ccc(NC(=O)C3CC3)cc2C(=O)N([C@@H](C)CO)C[C@@H]1C	4.9
O=C1NC(=O)C(Cc2ccccc2)N1 (stereo unspecified)	8.0

The closing 2 entries of the part above lead into the next:
SMILES	NOMO-1 viab
CC(C)NC(=O)N(C)C[C@@H]1Oc2ccc(NC(=O)C3CC3)cc2C(=O)N([C@@H](C)CO)C[C@@H]1C	4.9
O=C1NC(=O)C(Cc2ccccc2)N1 (stereo unspecified)	8.0
COc1ccc(NC(=O)N(C)C[C@H]2Oc3c(NC(=O)Nc4ccccc4)cccc3C(=O)N([C@@H](C)CO)C[C@H]2C)cc1	39.3
C[C@@H]1CN([C@H](C)CO)C(=O)c2cccc(N(C)C)c2O[C@@H]1CN(C)Cc1ccc(-c2ccccc2)cc1	24.9
COC(=O)c1cc(OC)c(OC)cc1NC(=O)CSc1nc2ccccc2o1	35.9
COc1ccc(S(=O)(=O)Nc2ccc3c(c2)CC(=O)N([C@H](C)CO)C[C@@H](C)[C@@H](CN(C)C(=O)Nc2ccc(F)cc2)O3)cc1	16.6
C[C@H](CO)N1C[C@H](C)[C@H](CN(C)C(=O)Nc2ccc3c(c2)OCO3)Oc2ccc(NC(=O)CCC(F)(F)F)cc2C1=O	-2.4
NC(=O)C1CCN(C(=O)CSc2nnnn2-c2ccccc2)CC1	23.1
Cc1sc2c(c1C)C(=O)C(C(=O)Nc1ccc(Cl)cc1)S(=O)(=O)N2C (stereo unspecified)	35.2
O=C1SC(=S)N/C1=C/c1cccc(O)c1	25.8
CC1CN(C2=NC(=O)/C(=C/c3ccccc3)S2)CC(C)O1 (stereo unspecified)	25.3
COc1ccc(NC(=O)N(C)C[C@H]2Oc3c(NS(=O)(=O)c4c(C)noc4C)cccc3C(=O)N([C@@H](C)CO)C[C@H]2C)cc1	-10.5
C[C@H]1CN([C@@H](C)CO)C(=O)c2cc(NC(=O)C3CC3)ccc2O[C@H]1CN(C)Cc1ccccc1	-2.4
CNC[C@@H]1Oc2ccc(NC(=O)CCC(F)(F)F)cc2C(=O)N([C@@H](C)CO)C[C@@H]1C	-7.3
COc1ccccc1NC(=O)CSc1ncn(-c2ccccc2)n1	-10.1
Cc1ccc(S(=O)(=O)N(C)C[C@H]2Oc3ccc(NS(=O)(=O)c4ccc(Cl)cc4)cc3C(=O)N([C@@H](C)CO)C[C@@H]2C)cc1	20.7
CN1C(C(=O)c2ccccc2)C(=O)c2ccccc2S1(=O)=O (stereo unspecified)	63.8
CC(C)NC(=O)N(C)C[C@@H]1Oc2c(NC(=O)c3nc4ccccc4s3)cccc2C(=O)N([C@H](C)CO)C[C@@H]1C	-3.2
C[C@H]1CN([C@@H](C)CO)C(=O)Cc2cc(N(C)C)ccc2O[C@@H]1CN(C)CC1CC1	26.2
COc1ccc(NC(=O)C(=O)NCC(=O)Nc2ccc(OC)c(Cl)c2)cc1	-22.9
CC(C)(C)c1ccc(S(=O)(=O)NCCC(=O)O)cc1	17.6
CCN(CC)C(=O)c1sc(NC(=S)Nc2cnccn2)c(C(=O)OC)c1C	12.2
COc1ccc(OC)c(S(=O)(=O)Nc2ccc(NC(C)=O)cc2)c1	8.5
COc1ccc(S(=O)(=O)Nc2ccc3c(c2)C(=O)N([C@@H](C)CO)C[C@H](C)[C@H](CN(C)Cc2ccc4c(c2)OCO4)O3)cc1	-10.0
C[C@@H]1CN([C@H](C)CO)C(=O)c2cccc(NS(=O)(=O)c3ccc(F)cc3)c2O[C@@H]1CN(C)C(=O)Nc1ccccc1	-0.2
C[C@@H]1CN([C@@H](C)CO)C(=O)c2cccc(NC(=O)NC3CCCCC3)c2O[C@@H]1CN(C)Cc1ccc2c(c1)OCO2	19.6
COc1ccccc1NC(=O)Cn1nc(-c2cccc([N+](=O)[O-])c2)c2ccccc2c1=O	-5.5
Cc1ccc(NS(=O)(=O)c2cc(C(=O)Nc3ccccc3C(=O)N3CCOCC3)ccc2Cl)c(C)c1	-1.2
O=c1c2cn[nH]c2nc(SCc2ccc3c(c2)OCCO3)n1-c1ccccc1	42.2
COc1ccccc1-n1nnnc1SCC(=O)Nc1cc(OC)c(OC)c(OC)c1	26.8
O=C(CNS(=O)(=O)c1cc(Cl)ccc1Cl)Nc1ccc(Cl)cc1	-11.4
Cc1noc(C)c1S(=O)(=O)Nc1cccc2c1O[C@@H](CN(C)Cc1ccc(-c3ccccc3)cc1)[C@@H](C)CN([C@@H](C)CO)C2=O	14.3
Cc1cc(Br)c(NC(=O)CSc2nnc(N)s2)cc1C	-20.5
COc1ccc(CN(C)C[C@H]2Oc3c(NS(=O)(=O)c4ccc(OC)cc4)cccc3C(=O)N([C@@H](C)CO)C[C@@H]2C)cc1	1.2
C[C@@H]1CN([C@@H](C)CO)C(=O)Cc2cc(NC(=O)Nc3ccc(C(F)(F)F)cc3)ccc2O[C@@H]1CN(C)Cc1ccc(C(=O)Nc2ccccc2N)cc1	127.5*
CSc1sc(-c2[nH]ncc2Br)c2c1C(=O)CC(C)(C)C2	52.6
C[C@H]1CN([C@@H](C)CO)C(=O)c2cc(NS(=O)(=O)c3ccc(F)cc3)ccc2O[C@H]1CN(C)CC1CCCCC1	-1.6
C[C@H](CO)N1C[C@H](C)[C@@H](CN(C)Cc2ccc(C(F)(F)F)cc2)Oc2ccc(NC(=O)NC3CCCCC3)cc2C1=O	49.7
COc1ccc(N(CC(=O)Nc2ccc(Br)c(Cl)c2)S(C)(=O)=O)cc1Cl	29.3
CNC[C@H]1Oc2ccc(NS(=O)(=O)c3c(C)noc3C)cc2C(=O)N([C@H](C)CO)C[C@H]1C	12.5
C[C@@H]1CCCCO[C@@H](CN(C)Cc2ccc(Cl)c(Cl)c2)[C@@H](C)CN([C@H](C)CO)C(=O)c2cc(NC(=O)CCCN(C)C)ccc2O1	25.0
COc1ccc(NC(=O)Nc2ccc3c(c2)CC(=O)N([C@H](C)CO)C[C@@H](C)[C@H](CN(C)Cc2ccc(Cl)c(Cl)c2)O3)cc1	85.1*
C[C@@H]1CN([C@@H](C)CO)C(=O)c2cccc(NC(=O)NC3CCCCC3)c2O[C@H]1CN(C)C(=O)Nc1ccc2c(c1)OCO2	-0.6
O=C(c1c(O)c2ccc(Cl)cc2[nH]c1=O)C1CC1	-7.8
C[C@@H]1CCCCO[C@@H](CN(C)C(=O)NC2CCCCC2)[C@@H](C)CN([C@H](C)CO)C(=O)c2cc(NC(=O)Nc3ccccc3)ccc2O1	33.1
C[C@H](CO)N1C[C@H](C)[C@H](CN(C)S(=O)(=O)c2ccc(Cl)cc2)Oc2ccc(NC(=O)Cn3cnnn3)cc2C1=O	25.5
CS(=O)(=O)N(CC(=O)Nc1ccc(F)c(F)c1)c1ccccc1F	-8.1
Cc1ccc(C(=O)Oc2cc(C)cc(OC(=O)c3ccc(C)cc3)c2)cc1	21.9
C[C@H](CO)N1C[C@H](C)[C@H](CN(C)Cc2ccc(Oc3ccccc3)cc2)Oc2c(NC(=O)Nc3cccc4ccccc34)cccc2C1=O	122.4*
C[C@@H]1CN([C@@H](C)CO)C(=O)Cc2cc(NC(=O)NC3CCCCC3)ccc2O[C@@H]1CN(C)S(C)(=O)=O	20.1
COc1ccc(CC(CC(=O)O)C(=O)Nc2ccccc2)cc1 (stereo unspecified)	16.4
C[C@H](CO)N1C[C@H](C)[C@@H](CN(C)Cc2ccc(-c3ccccc3)cc2)Oc2c(NC(=O)Nc3ccc(C(F)(F)F)cc3)cccc2C1=O	52.9
Cc1ccc(OCC(=O)Nc2cc(-c3nc4cc(Cl)ccc4o3)ccc2C)c(C)c1	49.7
Cc1c(C(=O)Cc2c(O)c3ccccc3oc2=O)sc2nc(C(F)(F)F)nn12	-10.1
O=C(NCCCO)c1nc2ccccc2s1	-8.1
C[C@H]1CN([C@@H](C)CO)C(=O)Cc2cc(NS(=O)(=O)c3cn(C)cn3)ccc2O[C@@H]1CN(C)CC1CCCCC1	19.2
COc1c(Cl)cc(C(=O)Nc2sc3c(c2C(=O)NCc2ccco2)CCC3)cc1Cl	13.3
COc1ccc(NC(=O)CCCN2C(=O)c3ccccc3C2=O)c(OC)c1	-7.7
COc1cccc2c1C(c1ccc3c(c1O)C(=O)CC(C)C3O)OC2=O (stereo unspecified)	5.4
C[C@@H]1CN([C@@H](C)CO)C(=O)c2cc(NC(=O)Cc3ccccc3)ccc2O[C@@H]1CN(C)S(=O)(=O)c1cccs1	3.9
C[C@H]1CN([C@@H](C)CO)C(=O)c2cc(NS(=O)(=O)c3ccc(Cl)cc3)ccc2O[C@H]1CN(C)S(=O)(=O)c1ccccc1	26.7
C[C@@H]1CN([C@H](C)CO)C(=O)Cc2cc(N(C)C)ccc2O[C@H]1CN(C)C(=O)Nc1ccccc1	2.5
Later entries
SMILES	NOMO-1 viab
COc1ccc(NC(=O)Cn2c([N+](=O)[O-])cnc2C)c(OC)c1	-7.3
C[C@H]1CN([C@@H](C)CO)C(=O)c2cccc(N(C)C)c2O[C@H]1CN(C)Cc1ccc(C(F)(F)F)cc1	26.5
O=C(CN1CCOCC1)Nc1ccc(NC(=O)CN2CCOCC2)c(Cl)c1	9.4
C[C@@H]1CN([C@H](C)CO)C(=O)c2cccc(NC(=O)NC3CCCCC3)c2O[C@H]1CN(C)Cc1ccc(-c2ccccc2)cc1	?
C[C@H]1CN([C@@H](C)CO)C(=O)c2cc(NC(=O)Nc3cccc4ccccc34)ccc2O[C@H]1CN(C)S(=O)(=O)c1ccc(F)cc1	-3.3
COc1ccc(NC(=O)N(C)C[C@H]2Oc3c(NS(=O)(=O)c4cccs4)cccc3C(=O)N([C@H](C)CO)C[C@@H]2C)cc1	18.9
CNC[C@H]1Oc2c(NS(=O)(=O)c3cn(C)cn3)cccc2C(=O)N([C@@H](C)CO)C[C@@H]1C	-9.9
COc1c(CO)c(O)cc2c1C(=O)c1ccccc1C2=O	25.2
C[C@@H]1CN([C@@H](C)CO)C(=O)c2cccc(NS(=O)(=O)c3cn(C)cn3)c2O[C@H]1CN(C)Cc1ccc2c(c1)OCO2	5.2
CC(C)NC(=O)Nc1ccc2c(c1)C(=O)N([C@H](C)CO)C[C@@H](C)[C@@H](CN(C)S(=O)(=O)c1ccc(F)cc1)O2	11.1
